BJeLR lethal: kills HRASV12-expressing BJeLR cells. 300,000 compounds, 0.17% hits. inhibition, % (concentration not given with the values). BJeLR (HRASV12) viability, CellTiter-Glo ATP luminescence, 48 h; reference of the scale not given here;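 active = replicate mean above 50%; inconclusive = above 50% but judged a plate artefact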;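 also: 50 nL library stock added to about 25 µL; numbers are from one replicate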
RN4220 kill: S. aureus RN4220 growth inhibition | OD600, 16 h | AID 1259311 | 330,000 compounds, 0.33% hits | inhibition, % (concentration not given with the values);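 active = z-score of -3 or lower and OD600 up to 0.18 on both plates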;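 also: plate controls were untreated cells for no effect and reference antibiotic for full effect; stock transfer was 100 nL into about 80 µL; one replicate is shown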
Sa ugtP lethal: kills S. aureus RN4220 lacking UgtP; S. aureus RN4220 ugtP deletion, OD600 growth, 16 h; some inactives read as strong as hits; growth inhibition, % (test concentration not listed); 330,000 compounds, 0.54% hits; AID 1259309;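 active = z-score under -3 and OD600 up to 0.15 on both plates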;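 also: plate controls were untreated wells for no effect and antibiotic for full effect; wells of about 80 µL received 100 nL stock; the first replicate is given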
Autofluor counter: flagged as autofluorescent in microsphere protease counterscreen; compound autofluorescence counterscreen, microsphere flow cytometry; stronger effect = higher value; 360,000 compounds, 3.1% hits; fluorescence intensity (concentration not given with the values);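 active = at least 3 SD above the mean of all compounds, about 16000 in these data; inconclusive = too few beads counted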;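 also: 100 nL of 1 mM stock went into each well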
PrP 5UTR inh: suppresses PrP 5' UTR mRNA reporter expression; AID 488862; inhibition, % (test concentration not listed); 340,000 compounds, 0.35% hits; cell-based PrP 5' UTR mRNA reporter, plate reader;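 active = every replicate at 50% or more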;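 also: 0 = median of the neutral control wells; tested in H4 reporter cells; numbers are from one replicate; inactives centre near -14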
Mtb hypoxia inh: reduces hypoxia-regulated biosensor signal in M. tuberculosis. M. tuberculosis hypoxia-regulated fluorescent reporter, fluorescence. fluorescence inhibition, % (test concentration not listed). 300,000 compounds, 0.1% hits. AID 1159583;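 active = 35 to 45% if threefold the growth effect, above 45% if 1.5-fold the growth effect; inactive = the rest, general growth blockers included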;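 also: wells of about 50 µL received 100 nL stock; 0% = vehicle wells and 100% = reference inhibitor wells; whole bacteria with a GFP reporter of the hypoxia response; strong numbers were not always called active; many hits fall short of the cut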
Mtb hypoxia inh growth: also measured in Mtb hypoxia inh; calls as there; growth inhibition, %; measured here: M. tuberculosis growth (absorbance);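 0% = vehicle and 100% = reference antibiotic; read after six days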
* = called active by the depositor; ? = inconclusive; . = not tested or not shown; & = joins results of further samples.

SMILES | BJeLR lethal | RN4220 kill | Sa ugtP lethal | Autofluor counter | PrP 5UTR inh | Mtb hypoxia inh | Mtb hypoxia inh growth
O=C(NC1CC2CCCC(C1)N2C(=O)Nc1ccccc1F)C1CC1 (stereo unspecified) | 1 | -1.1 | 7 | 5335 | -9 | 8 | 0
CCCCC(=O)N/N=C/c1ccc(-c2ccc([N+](=O)[O-])cc2)o1 | -24 | . | . | 3334 | -6 | . | .
O=C(CNC(=O)c1ccc(F)cc1)N/N=C/c1cc(Br)ccc1OCc1ccccc1 | 2 | . | . | 2509 | -46 | . | .
COc1cc(OC)c(S(=O)(=O)Nc2ccccc2NC(=O)CN2CCOCC2)cc1NC(C)=O | -13 | 4.8 | 9 | 4479 | -27 | 9 | 7
Cc1cccc(N2CC(C(=O)Nc3ccc(S(=O)(=O)N4CCOCC4)cc3)CC2=O)c1 (stereo unspecified) | -1 | 6.8 | 2 | 5196 | -5 | 17 | 2
Cc1ccccc1OCC(=O)NN=Cc1ccc2c(c1)OCCO2 | . | 4.0 | 6 | . | . | 13 | 15
CC1=C(C(=O)NC2CCCc3c2cnn3-c2ccc(F)cc2F)OCCO1 (stereo unspecified) | 18 | 1.6 | 13 | 4622 | -7 | 9 | -4
N#Cc1sc2nc(-c3ccccc3)cc(-c3ccco3)c2c1N | 1 | -1.0 | 5 | 4421 | 6 | 7 | 12
O=C(NCc1ccccn1)c1cccc(NS(=O)(=O)c2cccc(Cl)c2)c1 | -2 | 1.0 | 4 | 1919 | -20 | 3 | 6
CN(C)S(=O)(=O)c1cccc(C(=O)NCCNC(=O)c2cccc(S(=O)(=O)N(C)C)c2)c1 | 17 | 1.8 | 3 | 4081 | -19 | 1 | -1
COC(=O)Oc1ccc(/C=N/NS(=O)(=O)c2ccccc2)cc1OC | -15 | . | . | 3340 | -22 | . | .
CCCSc1nnc(NC(=O)CCc2ccccc2)s1 | -6 | 4.0 | 8 | 4589 | -1 | 0 | -4
CN(C)C(=O)c1cc(C(=O)c2ccccc2Br)c[nH]1 | -3 | 1.9 | 11 | 3253 | -16 | 17 | -4
O=C(Cn1cnc2ccccc21)NN=Cc1ccccc1[N+](=O)[O-] | . | 4.5 | -4 | . | . | -5 | 2
CCOC(=O)C1(Cc2cccc(Cl)c2)CCCN(C(=O)CCNC(C)=O)C1 (stereo unspecified) | 7 | 1.3 | 0 | 4151 | -28 | 2 | 13
CCCn1c(=O)[nH]c(=O)c2c1nc(-c1ccc(OC(F)F)cc1)n2CCN1CCOCC1 | 4 | 0.4 | -3 | 4305 | -17 | -2 | 12
COC(=O)c1c(NC(=O)COC(=O)[C@@H](NS(=O)(=O)c2cccc(Cl)c2)C(C)C)sc2c1CCC2 | -7 | 17 | -23 | 7723 | -8 | 5 | 6
COc1cc(/C=C2\SC(=Nc3ccc(O)cc3)NC2=O)cc(OC)c1O | 0 | 5.8 | 2 | 3960 | -42 | 1 | 10
O=C(COc1ccc(Cl)cc1)Nc1cc(NC(=O)COc2ccc(Cl)cc2)cc(C(=O)O)c1 | -2 | -8.3 | -23 | 4225 | -25 | 9 | 7
COc1ccc(OC)c(Cc2nnc(CCC(=O)N3CCN(C4CCCC4)CC3)o2)c1 | 9 | . | . | 5485 | -28 | . | .
CC1CC(C)CN(S(=O)(=O)c2cc(C(=O)O)c(Cl)s2)C1 (stereo unspecified) | -6 | 8.2 | 7 | 2169 | -76 | 7 | 1
O=S(=O)(NCC1COc2ccccc2O1)c1ccc2ccccc2c1 (stereo unspecified) | -10 | 2.2 | -2 | 2177 | -18 | 14 | 5
CS(=O)(=O)Nc1ccc(C2=NN(C(=O)c3ccco3)C(c3ccccc3F)C2)cc1 (stereo unspecified) | -7 | -2.4 | -6 | 2468 | -18 | 14 | -5
Cc1cccc(NC(=O)NCC2CCN(c3ccc(S(=O)(=O)N4CCOCC4)cc3)CC2)c1 | -15 | 3.2 | 2 | 4389 | -6 | -5 | 3
S=C(Nc1cccc(Cl)c1Cl)N1CCC2(CC1)OCCO2 | 2 | 0.0 | 7 | 3292 | -2 | 12 | 4
O=C(NCC1c2ccccc2CCN1C(=O)CN1C(=O)c2ccccc2C1=O)C1CCCCC1 (stereo unspecified) | -13 | 1.3 | -1 | 3172 | -19 | 2 | 6
CCOCCn1c(=O)c2c(nc3n2CCN3c2ccc(CC)cc2)n(C)c1=O | 13 | 2.7 | 6 | 4247 | -13 | -21 | -6
Cc1nn(C)c(C)c1/C=C/C(=O)c1ccc(Cl)cc1Cl | 14 | 9.1 | 8 | 3479 | 5 | 11 | 11
O=C(N/N=C/c1ccccn1)c1cc(C2CC2)nc2ccccc12 | 2 | . | . | 4184 | -17 | . | .
O=C(CCCSCCCC(=O)NN=Cc1ccccc1)NN=Cc1ccccc1 | . | -3.6 | -3 | 3771 | -16 | 8 | 8
Cc1noc(C)c1COC(=O)c1ccccc1Oc1ccccc1 | 4 | 6.7 | 3 | 3774 | 3 | . | .
CC1CCCCN1C(=O)N[C@@H](Cc1ccccc1)C(=O)O (stereo partly specified) | -11 | -0.3 | -4 | 10334 | -8 | -5 | 6
O=C(CCS(=O)(=O)c1ccccc1)Nc1ccccc1-c1nc2ccccc2s1 | 5 | 5.1 | -6 | 2197 | -20 | -4 | 1
CC(=O)Nc1ccc(C(=O)NCC2CCCCC2)cc1 | -6 | 4.2 | 9 | 4381 | -11 | 6 | 12
COc1ccc(Nc2ncccc2C(=O)Nc2ccccc2)cc1 | 3 | -6.2 | 37 | 3520 | -6 | 17 | 11
O=c1oc(CCCO)cc2ccc(C#Cc3cccnc3)cc12 | . | 16 | -3 | 3986 | -48 | 2 | 6
COc1cccc(/C=N/Nc2nccnc2Cl)c1O | 18 | . | . | 3850 | 48 | . | .
O=C(CN1C(=O)NC2(CCCCC2)C1=O)Nc1ccccc1N1CCCCC1 | . | -1.1 | -6 | 6507 | 2 | -1 | -3
CCCn1c(CN(Cc2ccccc2)Cc2ccccc2)nc2c1c(=O)n(C)c(=O)n2C | -14 | -1.4 | -11 | 5821 | -2 | 8 | 14
CCCCc1cc(=O)oc2cc(C)c(CN3CCCC3)c(O)c12 | 1 | -3.2 | -4 | 14339 | -15 | 0 | -1
CC1Cc2ccccc2N1C(=O)c1ccc(N2CCCC2)c([N+](=O)[O-])c1 (stereo unspecified) | 4 | 1.0 | 2 | 2231 | -4 | 13 | 7
CCN1CCN(c2ccc(N3CCN(S(=O)(=O)c4ccc(C)c([N+](=O)[O-])c4)CC3)nn2)CC1 | -5 | 1.3 | 4 | . | -4 | 1 | -5
O=C(NCCN1CCN(c2ccccc2)CC1)Nc1cccc(Br)c1 | 0 | -4.1 | -11 | 3483 | . | 10 | 10
Cc1ccc2nc(NC(=O)CSc3nnc(C)c(=O)n3N)sc2c1 | -7 | 1.3 | 4 | 7234 | -7 | 15 | 6
COc1ccc(NC(=O)C2=CC(c3ccc(C)cc3)=NS(=O)(=O)N2C)cc1 | 7 | -6.3 | -10 | 4389 | 7 | -2 | 1
COc1ccc(CNC(=O)C2CCCN(S(=O)(=O)N3CCC(C)CC3)C2)c(OC)c1 (stereo unspecified) | -5 | -2.2 | -6 | 5567 | -3 | -5 | 3
O=S1(=O)N=C(N(CCO)N=C/C=C/c2ccccc2)c2ccccc21 | . | 7.0 | -18 | . | . | 3 | 2
CCOc1ccc(S(=O)(=O)NCCC(=O)NCC(c2ccc(OC)cc2)N2CCCCC2)cc1 (stereo unspecified) | -21 | 1.2 | 3 | ? | -8 | 7 | -2
CCOC(=O)c1c(C)oc2c(CN3CCN(C)CC3)c(Br)c(OC)c(O)c12 | . | -0.1 | 4 | 12950 | 4 | 8 | 1
C/C(=N\NC(=O)c1cccc(Cl)c1)c1cccc(NC(=O)C(C)C)c1 | -1 | . | . | 3051 | -21 | . | .
CC(=O)Oc1ccc(C(=O)NCc2ccco2)cc1 | -4 | 3.0 | 4 | 3601 | -21 | 2 | 13
CCN1C(=O)C(=Cc2cccc(OC)c2Oc2ccc([N+](=O)[O-])cc2[N+](=O)[O-])SC1=S | 94* | -8.0 | -7 | 3569 | . | 1 | -9
O=C(Nc1ccc(S(=O)(=O)Nc2nccs2)cc1)c1cc(-c2ccccc2Cl)nc2ccccc12 | -1 | -20 | -13 | 3266 | -12 | 17 | 24
N#C/C(=C\c1ccco1)C(=O)NCC1CCCO1 (stereo unspecified) | 5 | 3.2 | 15 | 10598 | -12 | -1 | 2
CCc1ccc(C(C)NC(=O)c2cc(C)oc2C)cc1 (stereo unspecified) | -11 | -1.1 | -9 | 9165 | -8 | 13 | 7
O=C(OCc1cccc(F)c1)c1ccc2c(c1)-c1ccccc1C2=O | 5 | 6.0 | 26 | 22813* | -2 | -1 | 1
Cc1nnc(SCC(=O)N2CC(=O)Nc3ccccc32)n1C | -2 | -10 | 4 | . | -10 | -1 | 2
CCOC1OC(C(=O)NCc2ccccc2)=CC(C2CC2)C1CCCO (stereo unspecified) | . | 5.8&1.7 | 4&-7 | . | . | 18&7 | 7&6
CCOC(=O)C(C)n1cnc2c(nnn2-c2ccc(C)cc2)c1=O (stereo unspecified) | -5 | 0.0 | 1 | 11488 | -27 | -4 | 2
CCOC(=O)c1[nH]c(C)c(C(=O)Nc2cc(Cl)ccc2C)c1C | 30 | 4.6 | -8 | 10678 | 44 | 5 | 9

Next structures:
SMILES | BJeLR lethal | RN4220 kill | Sa ugtP lethal | Autofluor counter | PrP 5UTR inh | Mtb hypoxia inh | Mtb hypoxia inh growth
COC(=O)C1=C2c3[nH]c4ccccc4c3CCN2C(=O)CC1 | -14 | 5.9 | 5 | 5632 | -27 | . | .
COC(=O)N/N=C/c1cn(Cc2c(Cl)cccc2Cl)c2ccccc12 | 11 | . | . | 2111 | -22 | . | .
CCOc1ccc(OCCC(=O)Nc2ccc(F)cc2C)cc1 | 7 | 1.0 | 3 | 4531 | -4 | -2 | 7
Cc1ccc(C(C)C)c(OCC(=O)NNC(=O)Cn2[nH]c(=O)c3ccccc3c2=O)c1 | . | 3.3 | 9 | . | -6 | 2 | -1
Cc1ccc(C)c(OC(C)C(=O)Nc2nccs2)c1 (stereo unspecified) | -7 | -0.9 | 2 | 6067 | -13 | -14 | -11
O=C(Nc1nc(-c2ccc(Cl)cc2Cl)cs1)c1ccc(OCC2CCCO2)cc1 (stereo unspecified) | 21 | 20 | 14 | 2618 | -20 | 6 | 13
CC(C)CN(C(=O)CSc1nnc2ccccn12)C1CCS(=O)(=O)C1 (stereo unspecified) | . | 0.4 | 2 | 5433 | -30 | 3 | 2
O=C(N/N=C/c1ccc(Cl)cc1)c1ccc2c(c1)OCO2 | 5 | . | . | 2994 | -45 | . | .
Cc1ccc(CC(=O)Nc2cccc([N+](=O)[O-])c2)cc1 | 0 | 4.2 | 2 | 2200 | -17 | 13 | 10
COC(=O)Cc1ccc(NC(=S)Nc2ccccn2)cc1 | 5 | -1.7 | -2 | 4718 | -43 | 2 | 3
CC(C)n1c(CCCO)nc2ccccc21 | -1 | 7.5 | 3 | 24524* | -24 | 9 | 11
O=c1cc(CSc2ccc(Cl)cc2)nc(N2CCOCC2)[nH]1 | -8 | 1.3 | -8 | 4143 | -29 | 1 | 14
Cc1ccccc1C(=O)NC(=S)N(C)CCc1ccccn1 | -4 | 8.4 | 17 | 4393 | -18 | -3 | 11
CN(Cc1ccc(Cl)cc1Cl)C(=O)CNC(=O)c1ccco1 | -4 | 5.6 | 9 | 5938 | -21 | 7 | 5

Three entries drawn at random from the list so far:
SMILES | BJeLR lethal | RN4220 kill | Sa ugtP lethal | Autofluor counter | PrP 5UTR inh | Mtb hypoxia inh | Mtb hypoxia inh growth
COC(=O)Cc1ccc(NC(=S)Nc2ccccn2)cc1 | 5 | -1.7 | -2 | 4718 | -43 | 2 | 3
COC(=O)C1=C2c3[nH]c4ccccc4c3CCN2C(=O)CC1 | -14 | 5.9 | 5 | 5632 | -27 | . | .
O=c1cc(CSc2ccc(Cl)cc2)nc(N2CCOCC2)[nH]1 | -8 | 1.3 | -8 | 4143 | -29 | 1 | 14

Screening data from PubChem.

An unsorted share of the library; any-hit rate near 4.1%.
